Assay outcomes: PubChem BioAssay, National Center for Advancing Translational Sciences (NCATS)
2A firefly = FMDV 2A StopGo reporter, firefly signal; HEK cells with a luciferase reporter of 2A StopGo recoding; Potency, µM (top dose mostly 57.5 µM), for inactives: at the highest dose signal change, negative = less light; 120,000 compounds, 0.23% hits; AID 1745856; active = well fitted falling curve with a large enough effect; inconclusive = small, poorly fitted or top-dose-only effect; inactive = no such curve, though single readings can be large or run the other way; further: nearly all actives have a fitted effect of over 60% in size; overnight with compound
StopGo RLuc = lowers the Renilla signal of an FMDV 2A StopGo reporter | HEK cells with a luciferase reporter of 2A StopGo recoding | Potency, µM (series often up to 57.5 µM), inactives show at the highest dose signal change, negative = less light | 120,000 compounds, 0.32% hits | AID 1745857; active means well fitted falling curve with a large enough effect; inconclusive means small, poorly fitted or top-dose-only effect; inactive means no such curve, though single readings can be large or run the other way; further: nearly all actives have a fitted effect of over 55% in size; overnight with compound
Starred values were filed as active, the others as inactive; ? = inconclusive; [ ] = dose if it differs, or a comment. On the % scale 0 is the no-effect control and ±100 the full control effect; potency means the concentration at half of the fitted maximal effect. No enrichment for hits. Share with any hit: about 0.53%.

SMILES	2A firefly	StopGo RLuc
Cc1cc(F)ccc1S(=O)(=O)NCC(c1ccco1)S(=O)(=O)c1cccs1 (stereo not given)	5%	227%[activator]
C=CC[C@@H]1Cc2c(N)cccc2[C@@H](CC=C)N1	37%[activator]	2%
Cc1ccc(C)c(Cn2c(SCC(=O)NCc3ccccc3)nc3ccccc32)c1	-5%	-5%
CC(=O)NC1(C#N)CCCCC1	-4%	-6%[1.06 µM]
CCCCN1C(C(C)=O)=C(OC(=O)c2ccc(C)cc2)c2ccccc2S1(=O)=O	36%[activator]	36%[activator]
CCCCC(=O)Nc1c(S(=O)(=O)c2ccc(F)cc2)c(C)c(C)n1CCOC	1%	50%[activator]
Cc1ccc(-n2c(=O)c3sccc3n(CC(=O)N3CCCCC3C)c2=O)cc1C (stereo not given)	26%	-5%
Cc1c(Cl)cccc1NC(=O)C(C)C	2%	8%
CS(=O)(=O)Nc1ccc(/C=C/C(=O)O)cc1	7%	9%
CCOc1cc(C)c(C(C)C)cc1S(=O)(=O)N(CC)CC	-1%	194%[activator]
CCc1ccc(C(=O)c2cn(CC(=O)Nc3cc(C)ccc3C)c3nc(C)ccc3c2=O)cc1	-3%	-10%
O=C(Cc1ccc(-c2ccccc2)cc1)N1CCN(S(=O)(=O)c2ccc3ccccc3c2)CC1	-4%	-9%
Cn1nc(-c2ccccc2F)c2cc(C(=O)N3CCN(c4ccccc4F)CC3)sc21	?	?
O=C(Oc1ccc2c(=O)c(-c3ccc(Cl)cc3)coc2c1)C1CC1	201%[activator]	15%
O=C(NCC(O)COc1cccc(F)c1)c1ccoc1 (stereo not given)	24%	12%
CS(=O)(=O)Cc1cccc(C(=O)Nc2ccc(F)cc2F)c1	77%[activator]	3%
COC(=O)Cn1c(CN(C)Cc2ccccc2)nc2c1c(=O)n(C)c(=O)n2C	2%	10%
O=C(Nc1cccc(-c2nc3cc(Cl)ccc3o2)c1)c1cccc(F)c1	2%	-10%
FC(F)(F)c1ccc(Cl)c(N/N=C/c2cccc(OCc3ccccc3)c2)c1	50%[activator]	24%
CCOCCOC(=O)c1nc2ccccc2nc1Nc1cc(C)cc(C)c1	15%	-6%
CCc1ccc(NS(=O)(=O)c2ccc(NC(C)=O)c(OC)c2)cc1	0%	185%[activator]
CCCOc1ccc(Br)cc1C1C(C(=O)OC(C)C)=C(C)Nc2nnnn21 (stereo not given)	-12%	15%
O=C(Cc1ccc(F)cc1)NCc1ccc2c(c1)CCN2C(=O)c1ccc(F)cc1	1%	4%
CC(=O)N1c2ccc(S(=O)(=O)N3CCCCCC3)cc2CC1C(=O)NCc1ccccc1F (stereo not given)	22%	19%
CCCCCN1C(C(=O)c2ccccc2)=C(NC(=O)c2ccc(OC)c(OC)c2)c2ccccc2S1(=O)=O	?	-9%
SMILES	2A firefly	StopGo RLuc
Cc1cccc(-c2nc(S(=O)(=O)c3ccc(Cl)cc3)c(N3CCCCCC3)o2)c1	-5%	148%[activator]
CCCCCn1nc(C(=O)OCCOc2cccc(C)c2)c2ccccc2c1=O	-5%	-7%
Cc1cc(Cl)ccc1NS(=O)(=O)c1ccccc1C#N	-1%	11%
NC(=O)C(Cc1ccccc1)NS(=O)(=O)c1ccc(Cl)s1 (stereo not given)	-18%	-2%
CCc1nc2ccc(C(=O)Nc3ccc(C)cn3)cc2nc1CC	81%[activator]	-1%
COc1ccc(OC)c(NC(=O)N2CCC(N3CCN(Cc4ccc(F)cc4)C(=O)C3=O)CC2)c1	-12%	-15%
CC(C)NC(=O)CN(C)C(=O)CCl	-15%	-16%
Cc1cn2c(=O)cc(COC(=O)c3ccc(NC(=O)COc4ccccc4C)cc3)nc2s1	-14%	2%
COc1ccc(C2C(=O)N(C3CCCCCC3)CC(=O)N2Cc2ccccc2)cc1 (stereo not given)	-4%	18%
COc1cc(NC(=O)c2ccc3ccccc3n2)cc(OC)c1	164%[activator]	38%
O=C(NC1CCCCC1)c1cc2sc3ccccc3c2s1	0%	0%
Cn1cc(C(=O)NCCc2ccccc2)c(=O)c2cc(S(=O)(=O)N3CCCCC3)ccc21	1%	-4%
O=C(CCn1ccc2cc(S(=O)(=O)N3CCCC3)ccc21)NCc1cccc(F)c1	0%	33%[activator]
OC(c1ccccc1)(c1ccccc1)C1CN2CCC1CC2 (stereo not given)	-2%	1%
CCc1cccc(C)c1NC(=O)CSc1nc2c(c(=O)[nH]1)CCC2	19%	-4%
Cc1ccc(-n2c(=O)c3c(c4cc(C)ccc4n3C)n(CC(=O)Nc3cc(C)cc(C)c3)c2=O)cc1	-7%	-9%
COc1ccc(OC)c(NC(=O)c2cc(C3CC3)nc3c2c(C)nn3-c2ccc(C)cc2)c1	-13%	-12%
C=CCNC(=O)NC(=O)CN(CC)c1ccc(C)cc1C	0%	23%
CC(C)Oc1ccc(C(=O)Nc2cccc3ncccc23)cc1	-17%	?
COC(=O)c1ccc(COc2ccc(C(=O)c3ccc(Cl)cc3)cc2)cc1	0%	-13%
COc1ccc(C(=O)Nc2sc3c(c2C(N)=O)CCC(C)C3)c(OC)c1OC (stereo not given)	5%	1%
CCOC(=O)c1c(-c2ccc(C)cc2)csc1NC(=O)c1cc(-c2ccc(OC)cc2)on1	3%	-12%
CC(C)Cn1c(SCC(=O)Nc2ccc3c(c2)OCO3)nc2cc(Cl)ccc2c1=O	-8%	82%[activator]
CC(=O)c1c(C)[nH]c(C(=O)COc2ccccc2F)c1C	123%[activator]	-18%
O=C(/C=C/c1ccccc1)Nc1cc(-c2nc3ccccc3o2)ccc1Cl	97%[activator]	-11%

Some of the entries so far, with bars between the fields.
Molecule | 2A firefly | StopGo RLuc
CC(=O)N1c2ccc(S(=O)(=O)N3CCCCCC3)cc2CC1C(=O)NCc1ccccc1F (stereo not given) | 22% | 19%
CCCCCN1C(C(=O)c2ccccc2)=C(NC(=O)c2ccc(OC)c(OC)c2)c2ccccc2S1(=O)=O | ? | -9%
Cc1cccc(-c2nc(S(=O)(=O)c3ccc(Cl)cc3)c(N3CCCCCC3)o2)c1 | -5% | 148%[activator]
CCCCCn1nc(C(=O)OCCOc2cccc(C)c2)c2ccccc2c1=O | -5% | -7%
Cc1cc(Cl)ccc1NS(=O)(=O)c1ccccc1C#N | -1% | 11%
NC(=O)C(Cc1ccccc1)NS(=O)(=O)c1ccc(Cl)s1 (stereo not given) | -18% | -2%
CCc1nc2ccc(C(=O)Nc3ccc(C)cn3)cc2nc1CC | 81%[activator] | -1%
COc1ccc(OC)c(NC(=O)N2CCC(N3CCN(Cc4ccc(F)cc4)C(=O)C3=O)CC2)c1 | -12% | -15%
CC(C)NC(=O)CN(C)C(=O)CCl | -15% | -16%
Cc1cn2c(=O)cc(COC(=O)c3ccc(NC(=O)COc4ccccc4C)cc3)nc2s1 | -14% | 2%
COc1ccc(C2C(=O)N(C3CCCCCC3)CC(=O)N2Cc2ccccc2)cc1 (stereo not given) | -4% | 18%
COc1cc(NC(=O)c2ccc3ccccc3n2)cc(OC)c1 | 164%[activator] | 38%
O=C(NC1CCCCC1)c1cc2sc3ccccc3c2s1 | 0% | 0%
Cn1cc(C(=O)NCCc2ccccc2)c(=O)c2cc(S(=O)(=O)N3CCCCC3)ccc21 | 1% | -4%
O=C(CCn1ccc2cc(S(=O)(=O)N3CCCC3)ccc21)NCc1cccc(F)c1 | 0% | 33%[activator]
OC(c1ccccc1)(c1ccccc1)C1CN2CCC1CC2 (stereo not given) | -2% | 1%
CCc1cccc(C)c1NC(=O)CSc1nc2c(c(=O)[nH]1)CCC2 | 19% | -4%
Cc1ccc(-n2c(=O)c3c(c4cc(C)ccc4n3C)n(CC(=O)Nc3cc(C)cc(C)c3)c2=O)cc1 | -7% | -9%
COc1ccc(OC)c(NC(=O)c2cc(C3CC3)nc3c2c(C)nn3-c2ccc(C)cc2)c1 | -13% | -12%
C=CCNC(=O)NC(=O)CN(CC)c1ccc(C)cc1C | 0% | 23%
CC(C)Oc1ccc(C(=O)Nc2cccc3ncccc23)cc1 | -17% | ?
COC(=O)c1ccc(COc2ccc(C(=O)c3ccc(Cl)cc3)cc2)cc1 | 0% | -13%
COc1ccc(C(=O)Nc2sc3c(c2C(N)=O)CCC(C)C3)c(OC)c1OC (stereo not given) | 5% | 1%
CCOC(=O)c1c(-c2ccc(C)cc2)csc1NC(=O)c1cc(-c2ccc(OC)cc2)on1 | 3% | -12%

(next part)
SMILES	2A firefly	StopGo RLuc
CCOc1ccc(/C=C(\C#N)C(=O)c2ccc(C)cc2)cc1OC	-3%	10%
Cc1ccc(NC(=O)[C@@H](c2ccccc2)N2Cc3ccccc3C2=O)cc1F	-13%	46%[activator]
Cc1ccc(-c2c(NC(=O)c3cccs3)oc3ccccc3c2=O)cc1	84%[activator]	5%
CCN(CC)CCCNC(=O)Cn1nc(N2CCN(c3ccccc3OC)CC2)ccc1=O	-9%	-19%
Cn1c(=O)[nH]c(=O)c2c1nc(Br)n2CCCSc1ncccn1	4%	-6%
O=C(Nc1ccccc1SC(F)F)C1CCCCC1	4%	5%
COc1cc2c(cc1OC)C(C)N(C(=O)c1ccc(F)cc1F)CC2 (stereo not given)	0%	25%
Cc1ccc(Cl)cc1NC(=O)c1ccc2snnc2c1	9%	0%
COc1ccc(CNC(=O)Cc2c(C)c3c(cc(C)c4c(C)c(C)oc43)oc2=O)cc1OC	-13%	-11%
CCOc1ccc(CNC(=O)c2sc3nc(C)cc(C)c3c2-n2cccc2)cc1	-9%	-3%
CC(C)c1ccc(NC(=O)N2CCN(c3ccc(Cl)c(Cl)c3)CC2)cc1	4%	-29%
COc1ccc(N2C(=O)C(C)(C)CS2(=O)=O)cc1S(=O)(=O)N1CCCc2ccccc21	-5%	124%[activator]
O=C(CSc1nc2cc(S(=O)(=O)N3CCCCC3)ccc2o1)Nc1ccccc1F	65%[activator]	-7%
COc1ccc(S(=O)(=O)c2nnn(-c3ccc(C)c(Cl)c3)c2C)cc1	28%	15%
COC(=O)CN1C(=O)CSc2ccc(S(=O)(=O)Nc3cccc(Br)c3)cc21	-14%	227%[activator]
COc1ccc(NC(=O)Cn2c(=O)c3cccn3c3ccccc32)cc1Cl	-17%	-9%
COc1ccccc1-c1cnc(N)nc1-c1ccc(OCc2ccc(F)cc2)cc1O	-12%	-5%
CCOC(=O)c1c(NC(=O)c2ccc(Br)cc2)sc2c1CCCC2	-12%	-9%
COc1ccc(CN2CCN(Cc3ccncc3)CC2)cc1OC	-3%	-2%
Cc1ccc(CCNC(=O)c2sc3nc4n(c(=O)c3c2C)CCCC4)cc1	?	?
O=[N+]([O-])c1ccc(O)c(-c2ccnc3cc(-c4ccccc4)nn23)c1	11%	4%
CCOc1ccccc1N(CC)C(=O)c1cc2ccc3cccnc3c2[nH]1	0%	0%
CC(C)CSc1nc(N2CCOCC2)c2c(c1C#N)CCCC2	8%	8%
COc1cc(CN(C(=O)Nc2ccccc2)c2ccccn2)cc(OC)c1OC	45%[activator]	-3%
Cc1ccc(COc2ccc(CNC(C)C)cc2)cc1	126%[activator]	-2%
SMILES	2A firefly	StopGo RLuc
N#Cc1cc(Oc2ccc(Br)cc2)c(Oc2ccc(Br)cc2)cc1C#N	23%	4%
COc1ccc(C2CC(=O)Nc3c2c(=O)nc(SC)n3C)cc1 (stereo not given)	-6%	-10%
CC(C)CC(NC(=O)Cn1cnc(C#N)n1)c1ccccc1 (stereo not given)	3%	6%
O=[N+]([O-])c1ccc(NC(=S)Nc2ccc3c(c2)CCC3)cc1	93%[activator]	16%
CCn1nc(C(=O)OCC#N)c2ccccc2c1=O	-1%	0%
CN1CCc2c(sc3c2C(=O)NC(c2ccc(OC(=O)c4ccccc4)cc2)N3)C1 (stereo not given)	92%[activator]	-11%
CCOC(=O)c1c(C)oc2ncnc(Nc3cccc(C(F)(F)F)c3)c12	2%	-2%
COc1ccc(-c2cc(C(=O)NCCO)c3ccccc3n2)cc1	0%	12%
CC1CCC2(CC1)NC(=O)N(NC(=O)c1nn(C)c(=O)c3ccccc13)C2=O (stereo not given)	69%[activator]	43%[activator]
CCN(CC)CCN(C(=O)c1ccco1)c1nc2ccc(Br)cc2s1	22%	-11%
CCOc1ccccc1NC(=O)c1ncoc1-c1cccc(OC)c1	15%	11%
CCc1ccc(NC(=O)Nc2nnc(N(CC(C)C)CC(C)C)s2)cc1	-6%	-16%
CCOc1ccccc1NC(=O)C(=O)NCC(c1cccnc1)N1CCN(c2ccccc2)CC1 (stereo not given)	-5%	-10%
Cc1cc(-n2c(C)cc(-c3csc(CC(=O)Nc4ccccc4C)n3)c2C)no1	29%	-9%
COC(=O)c1ccc(NC(=O)Cn2ncn3nc(-c4cc(C)ccc4C)cc3c2=O)cc1	0%	8%
O=c1cc(CN2CCOCC2)c2cc(Cl)ccc2o1	21%	2%
Cc1ccc2c(c1)c1c(c(=O)n(-c3ccccc3C)c(=O)n1CC(=O)NCc1ccccc1)n2C	-14%	-6%
